Source: PubChem BioAssay
rRNA inh HTS: inhibitors of bacterial rRNA selective over humanized ribosomes; GFP signal change (wild-type ribosome), % (no concentration beside the values); E. coli WT GFP vs humanized-ribosome RFP mutants, fluorescence, 24 h; hits give low values; DMSO median 0, no signal -100; 350,000 tested, 1.6% active;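 active means significant combined selectivity score with lowered wild-type GFP, culture density cut under 30%, mutant RFP and density less affected; inactive means any of these conditions unmet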; further: one replicate is shown; some compounds called inactive have numbers as strong as hits
rRNA inh HTS OD600: second read-out of rRNA inh HTS, no call of its own (marks repeat the call); OD600 change, %; measured here: OD600 growth;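 optical density of the mix in the first replicate; 0 = DMSO median and -100 = no signal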
rRNA inh HTS RFP: recorded beside rRNA inh HTS, whose call it bears; RFP signal change, %; measured here: RFP humanized mutant strains;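 first replicate; 0 = DMSO median and -100 = no signal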
Active calls of the source: *; & = joins results of further samples. The list is partial. The share of hits here may be higher or lower than overall.

SMILES	rRNA inh HTS	rRNA inh HTS OD600	rRNA inh HTS RFP
c1ccc(-c2ccc(C3[C@@H]4CN(Cc5cccnc5)C[C@H]3N4)cc2)cc1 (some centres not stated)	4&-15	5&-32	5.1&14
O=C(Nc1ccc(F)cc1)C(CCc1ccccc1)N1CCN(CC(=O)N2CCCC2)CC1 (configuration not stated)	6	-8	-0.8
O=C(c1ccc(F)cc1)N1CCCCN2[C@H](CO)[C@H](c3ccc(/C=C/c4ccccc4)cc3)[C@@H]2C1	-1	-1	-2.2
CN(C)CC(=O)Nc1ccc2c(c1)[C@@H]1C[C@H](CC(=O)N3CCOCC3)O[C@H](CO)[C@@H]1O2	5	6	0.8
COCC(=O)Nc1ccc2c(c1)C(=O)N(C)[C@H]1CC[C@H](CC(=O)O)O[C@H]1CO2	6	14	-2.1
CC(=O)Nc1ccc2c(c1)C(=O)N(C)[C@H]1CC[C@H](CC(=O)NCc3ccc4c(c3)OCO4)O[C@@H]1CO2	-3	-5	0.8
COc1ccc(NC(=O)C(c2ccccc2)n2c(=O)c(-c3ccco3)nc3ccccc32)cc1 (configuration not stated)	5	7	5.8
CCCN(C)C[C@H]1Oc2cc(C#CC3CCCCC3)ccc2S(=O)(=O)N([C@@H](C)CO)C[C@@H]1C	3	-1	2.0
C[C@@H]1CN(C)C(=O)c2cccc(N(C)C)c2O[C@@H]1CN(C)C	2	13	-0.5
CN(C)C(=O)c1cccc(-c2ccc3c(c2)[C@H]2[C@H](CCN2C(=O)c2cccnc2)[C@H](CO)N3)c1	1	10	2.5
CN1c2ccc(-c3cccc(C#N)c3)cc2[C@@H]2[C@@H](CCN2C(=O)CC2CC2)[C@H]1CO	4	3	-2.4
CO[C@@H]1CN(C)C(=O)c2cc(NC(=O)Nc3ccc(Cl)c(Cl)c3)ccc2OC[C@H](C)NC[C@@H]1C	-6&-59	-8&-81	8.9&-14
CC(=O)Nc1ccc2c(c1)CC(=O)N(C)C[C@H](C)[C@@H](CN(C)C(=O)OC(C)(C)C)O2	2	1	0.1
CC(=O)N1CC2(C1)[C@H](c1ccccc1)[C@H](CO)N2Cc1ccccc1F	2	-1	-1.2
CC(C)NC(=O)N1[C@H](CO)[C@@H]2c3ccccc3N(C)C[C@@H]21	5	7	2.6
N#C[C@H]1[C@@H](c2ccc(C#Cc3ccc(F)cc3)cc2)[C@H](CO)N1c1nc(-c2ccccc2)cs1	2	12	-0.5
CNC[C@H]1Oc2cc(-c3cccnc3)ccc2S(=O)(=O)N([C@@H](C)CO)C[C@H]1C	7	-3	0.6
CCCN1C[C@H](C)[C@H](OC)CN(C)C(=O)c2cc(NC(=O)Nc3cccc(F)c3)ccc2OC[C@H]1C	-2	-4	-1.6
CCCCCCc1ccc(-c2ccc(C#N)cc2)cc1	4	0	2.2
CC(C)C#Cc1ccc2c(c1)O[C@@H](CN(C)C(=O)C1CCC1)[C@@H](C)CN([C@H](C)CO)S2(=O)=O	-10	-30	-2.0
COc1cccc(CNC(=O)[C@H]2[C@H](CO)[C@H]3Cn4c(ccc(C5=CCCCC5)c4=O)[C@@H]2N3)c1	1	5	0.7
O=C1Cn2nnc(-c3ccccc3)c2C2c3cc(Br)ccc3CCN12 (configuration not stated)	-33	-32	-6.4
COc1cccc(NC(=O)C[C@@H]2CC[C@@H]3[C@@H](COc4ccc(NC(=O)C5CCC5)cc4C(=O)N3C)O2)c1	-1	8	1.4
Cc1noc(C)c1S(=O)(=O)N(C)C[C@@H]1OCCCC[C@@H](C)Oc2ccc(NC(=O)CCC(F)(F)F)cc2C(=O)N([C@H](C)CO)C[C@H]1C	0	-11	2.1
C[C@@H]1CN([C@H](C)CO)C(=O)CCCn2cc(nn2)CO[C@@H]1CN(C)C(=O)OCc1ccccc1	-2	0	-2.2
CCC(=O)Nc1ccc2c(c1)C(=O)N(C)[C@H]1CC[C@@H](CC(=O)N3CCc4ccccc4C3)O[C@H]1CO2	-3	5	1.1
COc1ccc(S(=O)(=O)N(C)C[C@@H]2Oc3ccc(NC(=O)Nc4cccc5ccccc45)cc3C(=O)N([C@H](C)CO)C[C@@H]2C)cc1	-1	9	-0.2
COCC(=O)N1CC[C@@H]2[C@H]1c1cc(-c3cccc(C(=O)N(C)C)c3)ccc1N[C@@H]2CO	1	24	-4.2
C[C@@H]1CN([C@@H](C)CO)C(=O)c2cc(NS(=O)(=O)c3cccs3)ccc2O[C@@H]1CN(C)S(=O)(=O)c1cccs1	-1	-3	-0.8
COc1ccc(CN(C)C[C@H]2OCCCC[C@H](C)Oc3ccc(NS(C)(=O)=O)cc3C(=O)N([C@H](C)CO)C[C@H]2C)cc1	0	2	0.9
COc1ccc(S(=O)(=O)N(C)C[C@H]2Oc3c(NC(=O)Nc4ccccc4)cccc3C(=O)N([C@@H](C)CO)C[C@H]2C)cc1	-7	-8	1.4
O=C(Nc1ccc(F)cc1)N1CC(=O)N2[C@H](CO)[C@H](c3ccc(C#Cc4ccccc4)cc3)[C@H]2C1	-32	-57	29
C/C=C/c1ccc2c(c1)O[C@H](CN(C)C(=O)C1CC1)[C@H](C)CN([C@@H](C)CO)S2(=O)=O	-5	-11	-3.4
C[C@H](NC(=O)C[C@@H]1CC[C@@H]2[C@@H](COc3ccc(NS(=O)(=O)c4ccc(Cl)cc4)cc3C(=O)N2C)O1)c1ccccc1	-5	-20	0.8
COc1ccc2c3c(n(C)c2c1)[C@@H](CO)NCC31CN(C(=O)c2ccc(F)cc2)C1	1	-1	3.9
O=C(NC1CCC1)[C@@H]1[C@@H](CO)[C@@H]2Cn3c(cccc3=O)[C@H]1N2Cc1cc(F)ccc1F	2	4	-2.6
C[C@@H]1CN([C@@H](C)CO)C(=O)c2ccccc2-c2ccccc2CO[C@@H]1CN(C)S(=O)(=O)c1cccc(F)c1	0	-6	-0.1
Cc1noc(C)c1NC(=O)Nc1ccc2c(c1)C(=O)N([C@H](C)CO)C[C@H](C)[C@H](CN(C)Cc1ccc(C(=O)O)cc1)OCCCC[C@@H](C)O2	0	5	-5.3
CCOC(=O)/C=C/c1cc(F)ccc1O	1	4	-1.0
COc1ccc(S(=O)(=O)N(C)C[C@@H]2Oc3cc(-c4cccc(F)c4)ccc3S(=O)(=O)N([C@@H](C)CO)C[C@H]2C)cc1	5	-3	0.7
Cc1noc(C)c1S(=O)(=O)Nc1ccc2c(c1)C(=O)N([C@H](C)CO)C[C@@H](C)[C@@H](CN(C)C(=O)CCCN(C)C)OCCCC[C@@H](C)O2	2	3	-2.1
CCC(=O)N1CC(=O)N2[C@H](CO)[C@H](c3ccc(C#CC(C)C)cc3)[C@@H]2C1	8	11	-5.0
CC(=O)NC[C@H]1[C@H](c2ccc(C3=CCCC3)cc2)[C@H](CO)N1C(=O)NC(C)C	4	10	-3.9
COc1cccc(NC(=O)Nc2ccc3c(c2)C(=O)N(C)[C@H]2CC[C@@H](CC(=O)O)O[C@H]2CO3)c1	1	1	-1.2
COc1ccc(CNC(=O)[C@@H](Cc2ccccc2)NC(=O)[C@H]2O[C@@H](n3ccc(=O)[nH]c3=O)[C@H](O)[C@@H]2O)cc1	8	18	4.0
COc1ccc2c3c([nH]c2c1)[C@@H](CO)N(S(C)(=O)=O)CC31CCN(Cc2ccccc2)CC1	-2	-2	-0.8
COc1ccc(S(=O)(=O)Nc2cccc3c2O[C@H](CN(C)S(=O)(=O)c2ccc(C)cc2)[C@@H](C)CN([C@@H](C)CO)C3=O)cc1	-5	-1	0.2
CC(C)NC(=O)N(C)C[C@@H]1Oc2ccc(NS(=O)(=O)c3cccs3)cc2C(=O)N([C@H](C)CO)C[C@H]1C	6	7	-1.0
C/C=C/c1ccc2c(c1)O[C@@H](CNC)[C@H](C)CN([C@@H](C)CO)S2(=O)=O	6	7	8.1
N#Cc1ccc(-c2ccc([C@@H]3[C@H]4CNC[C@@H]3N4Cc3ccc4c(c3)OCO4)cc2)cc1	-55	-80	-17
Next part.
SMILES	rRNA inh HTS	rRNA inh HTS OD600	rRNA inh HTS RFP
C[C@@H]1CCCCO[C@@H](CN(C)S(C)(=O)=O)[C@@H](C)CN([C@@H](C)CO)C(=O)c2cc(N(C)C)ccc2O1	1	4	4.8
COc1ccc(NC(=O)N(C)[C@H]2C[C@H]3c4[nH]c5c(-c6ccccc6)cccc5c4CCN3C(=O)[C@H]2[C@H](C)O)cc1	-32	-53	-4.9
C[C@H]1CCCCO[C@@H](CN(C)Cc2ccc(C(F)(F)F)cc2)[C@@H](C)CN([C@@H](C)CO)C(=O)c2cc(NC(=O)Cc3ccccc3)ccc2O1	0	-8	3.5
COc1ccc(NC(=O)N(C)C[C@@H]2Oc3ccc(NS(=O)(=O)c4ccc(C)cc4)cc3CC(=O)N([C@H](C)CO)C[C@@H]2C)cc1	-2	-2	1.2
CCCNC(=O)N1[C@H](CNC(C)=O)[C@@H](c2ccccc2)[C@@H]1CO	1	2	-0.3
O=C(/C=C(\Nc1cc(Cl)c(F)c(Cl)c1)c1ccccc1)c1ccccc1	-9	-19	0.3
C[C@@H]1CN([C@H](C)CO)C(=O)c2cccc(NC(=O)Nc3ccccc3)c2O[C@@H]1CN(C)C(=O)Nc1cccc2ccccc12	-2	-15	3.4
CC(C)NC(=O)Nc1ccc2c(c1)CC(=O)N(C)C[C@H](C)[C@H](CN(C)C(=O)OC(C)(C)C)O2	-2	-1	-0.3
C=CCN1C(=O)c2[nH]nc(-c3ccccc3)c2C1c1ccc(C)cc1 (configuration not stated)	-48	-80	-17
O=C(NCc1ccccc1)C(c1ccncc1)n1c(=O)c(-c2ccco2)nc2ccccc21 (configuration not stated)	11	4	-0.5
COc1ccc(S(=O)(=O)Nc2cccc3c2O[C@@H](CN(C)S(=O)(=O)c2ccc(C)cc2)[C@H](C)CN([C@@H](C)CO)C3=O)cc1	-3	-6	-1.2
Cc1cccc(-c2ccc([C@@H]3[C@H]4CN(C(=O)NC(C)C)CCCCN4[C@H]3CO)cc2)c1	-35	-50	4.7
CCCN1C(=O)c2[nH]nc(-c3ccccc3)c2C1c1ccc(F)cc1 (configuration not stated)	-28	-57	-2.3
CCNC(=O)C[C@H]1CC[C@@H]2[C@H](COC[C@H](O)CN2C(=O)c2cc(Cl)cc(Cl)c2)O1	1	-2	-3.7
O=C(C[C@H]1CC[C@H]2[C@@H](COC[C@H](O)CN2Cc2ccc3c(c2)OCO3)O1)Nc1ccc(-c2ccccc2)cc1	8	-9	3.2
CN1C(=O)c2cc(NS(=O)(=O)c3cccc(F)c3)ccc2OC[C@@H]2O[C@H](CC(=O)NCCN3CCCCC3)CC[C@@H]21	5	5	-1.6
COc1ccc(S(=O)(=O)Nc2ccc3c(c2)CC(=O)N([C@@H](C)CO)C[C@@H](C)[C@@H](CN(C)S(=O)(=O)c2ccccc2)O3)cc1	1	-2	2.6
CC(C)CC#Cc1ccc([C@@H]2[C@H](CO)N3C(=O)CN(C(=O)Cc4cccnc4)C[C@@H]23)cc1	2	0	2.7
CC(=O)Nc1ccc2c(c1)C(=O)N(C)[C@@H]1CC[C@@H](CC(=O)NCC3CCCCC3)O[C@H]1CO2	4	4	0.0
COc1ccc(S(=O)(=O)Nc2ccc3c(c2)C(=O)N(C)C[C@@H](OC)[C@H](C)CN(C(=O)NC(C)C)[C@H](C)CO3)cc1	2	-6	0.5

A portion taken from the entries so far, as a working copy:
SMILES	rRNA inh HTS	rRNA inh HTS OD600	rRNA inh HTS RFP
Cc1cccc(-c2ccc([C@@H]3[C@H]4CN(C(=O)NC(C)C)CCCCN4[C@H]3CO)cc2)c1	-35	-50	4.7
CCCN1C(=O)c2[nH]nc(-c3ccccc3)c2C1c1ccc(F)cc1 (configuration not stated)	-28	-57	-2.3
CCNC(=O)C[C@H]1CC[C@@H]2[C@H](COC[C@H](O)CN2C(=O)c2cc(Cl)cc(Cl)c2)O1	1	-2	-3.7
O=C(C[C@H]1CC[C@H]2[C@@H](COC[C@H](O)CN2Cc2ccc3c(c2)OCO3)O1)Nc1ccc(-c2ccccc2)cc1	8	-9	3.2
CN1C(=O)c2cc(NS(=O)(=O)c3cccc(F)c3)ccc2OC[C@@H]2O[C@H](CC(=O)NCCN3CCCCC3)CC[C@@H]21	5	5	-1.6
COc1ccc(S(=O)(=O)Nc2ccc3c(c2)CC(=O)N([C@@H](C)CO)C[C@@H](C)[C@@H](CN(C)S(=O)(=O)c2ccccc2)O3)cc1	1	-2	2.6
CC(C)CC#Cc1ccc([C@@H]2[C@H](CO)N3C(=O)CN(C(=O)Cc4cccnc4)C[C@@H]23)cc1	2	0	2.7
CC(=O)Nc1ccc2c(c1)C(=O)N(C)[C@@H]1CC[C@@H](CC(=O)NCC3CCCCC3)O[C@H]1CO2	4	4	0.0
COc1ccc(S(=O)(=O)Nc2ccc3c(c2)C(=O)N(C)C[C@@H](OC)[C@H](C)CN(C(=O)NC(C)C)[C@H](C)CO3)cc1	2	-6	0.5

(further entries)
SMILES	rRNA inh HTS	rRNA inh HTS OD600	rRNA inh HTS RFP
COCC(=O)Nc1ccc2c(c1)C(=O)N(C)C[C@@H](OC)[C@H](C)CN[C@H](C)CO2	4	14	-3.9
CO[C@@H]1CN(C)C(=O)c2cc(NC(=O)NC(C)C)ccc2OC[C@@H](C)N(CCC(F)(F)F)C[C@@H]1C	1	-3	1.6
COc1ccc(NC(=O)N(C)C[C@@H]2Oc3ccc(NC(=O)Nc4ccc(C(F)(F)F)cc4)cc3C(=O)N([C@@H](C)CO)C[C@@H]2C)cc1	1	4	0.3
C[C@@H]1CN([C@@H](C)CO)C(=O)Cc2cc(NC(=O)NC3CCCCC3)ccc2O[C@H]1CN(C)Cc1ccc(C(=O)Nc2ccccc2N)cc1	0	-8	-1.5
C[C@@H]1CN([C@H](C)CO)C(=O)c2cc(NC(=O)CCC(F)(F)F)ccc2O[C@@H](C)CCCCO[C@@H]1CN(C)C(=O)c1ccncc1	2	14	-0.9
